D2 ag – human D2 receptor agonism in beta-arrestin assay | DiscoveRx PathHunter D2 beta-arrestin, luminescence, 90 min; 100% = 57 uM dopamine signal | activation, % (no concentration beside the values) | 0.084% of 360,000 active | AID 624465; in the data active = activation above about 40%; inconclusive = about 15% to 40%; inactive = below about 15%; also: compound concentration not given in the record; the text of the record calls up to 30% inactive
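Agonist mode: compounds alone added to overnight-plated D2 PathHunter cells for 90 min at 37 C, with 57 uM final dopamine (EC100) defining full response. Beta-arrestin recruitment detected by chemiluminescent reagent, read after 1 h at ambient temperature.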
D2 potentiator – positive allosteric modulators of human D2 dopamine receptor; potentiation, % (test concentration not listed); DiscoveRx D2 beta-arrestin cells, luminescence, 90 min; 100% = 57 uM dopamine signal; P14416; 0.23% of 360,000 active; active = potentiation of 50% or more; inconclusive = 30% to 50%; inactive = 30% or less;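 also: compound concentration not given in the record; tested on top of an EC20 dose of dopamine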
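D2 cells co-treated with compound plus 50 nM dopamine (EC20) for 90 min at 37 deg C to detect potentiation. Beta-arrestin recruitment was read as enzyme-fragment luminescence after 1 h at ambient temperature. Full response was set by 57 uM dopamine.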
TRPML1 agonist – human mucolipin-1 channel agonism. activation, % (no concentration beside the values). Q9GZU1. TRPML1-expressing cells, Ca2+ dye fluorescence, FDSS; host cell line not named in the record; reference of the full effect not given here. AID 624414. 0.12% of 410,000 active; in the data active = activation above about 50%; inconclusive = about 30% to 50%; inactive = below about 30%; also: 0% is about no effect; the text of the record puts the active cut at 80%
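TRPML1-DL cells, Tet-induced overnight (~16 h, 37 degrees C), loaded 45-90 min at room temperature with Ca8 no-wash calcium dye plus quencher. FDSS fluorescence: 10 s baseline, compound pin-transfer, 110 s agonist read, then EC80 54-4 (4uM final) and 110 s antagonist read.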
TRPML1 inh – inhibitors of human TRPML1 channel | TRPML1-inducible cells, Ca2+ dye fluorescence, FDSS; active compounds read low; inhibition of EC80 agonist-evoked calcium signal | activity change, negative = inhibition, % (test concentration not listed) | 0.02% of 390,000 active | AID 624415; in the data active means activity change below about -50%; inconclusive means about -30% to -50%; inactive means above about -30%;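 also: stimulus is agonist 54-4 at its EC80 concentration; % is scaled to controls: 0 for no effect and ±100 for the full control effect; compound concentration not given in the record; the text of the record puts the active cut at -80%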
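TRPML1-DL cells, Tet-induced overnight (~16 h, 37 °C) at 1,500 cells/well, were loaded with Ca8 no-wash dye plus quencher for 45-90 min at room temperature. Compounds were pinned during FDSS kinetic reading; agonist 54-4 at EC80 (4 uM final) then added.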
Six1-Eya2 blk – inhibitors of human Six1/Eya2 interaction; AlphaScreen GST-Six1/His-Eya2 binding, biochemical; active compounds read low; control for the full effect not named in the record; activity change, % (test concentration not listed); 0.56% of 360,000 active; AID 651725; in the data active = activity change below about -65%; inconclusive = about -30% to -65%; inactive = above about -30%; also: % is scaled to controls: 0 for no effect and ±100 for the full control effect
Target sequence (O00167 whole entry, looked up): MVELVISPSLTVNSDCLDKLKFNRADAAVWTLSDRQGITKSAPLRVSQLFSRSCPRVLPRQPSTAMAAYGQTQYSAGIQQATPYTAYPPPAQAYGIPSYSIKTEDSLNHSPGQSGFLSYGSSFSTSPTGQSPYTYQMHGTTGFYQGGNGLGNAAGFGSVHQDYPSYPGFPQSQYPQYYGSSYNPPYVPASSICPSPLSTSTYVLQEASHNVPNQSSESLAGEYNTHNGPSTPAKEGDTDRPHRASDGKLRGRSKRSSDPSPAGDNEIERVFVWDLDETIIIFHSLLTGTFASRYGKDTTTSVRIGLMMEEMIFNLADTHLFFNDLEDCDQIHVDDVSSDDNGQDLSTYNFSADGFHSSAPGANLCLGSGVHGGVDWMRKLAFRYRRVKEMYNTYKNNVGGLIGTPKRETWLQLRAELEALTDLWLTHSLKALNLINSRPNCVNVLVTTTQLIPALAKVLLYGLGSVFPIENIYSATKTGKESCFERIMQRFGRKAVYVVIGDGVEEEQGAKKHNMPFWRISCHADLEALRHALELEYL
Target sequence (Q15475 whole entry, looked up): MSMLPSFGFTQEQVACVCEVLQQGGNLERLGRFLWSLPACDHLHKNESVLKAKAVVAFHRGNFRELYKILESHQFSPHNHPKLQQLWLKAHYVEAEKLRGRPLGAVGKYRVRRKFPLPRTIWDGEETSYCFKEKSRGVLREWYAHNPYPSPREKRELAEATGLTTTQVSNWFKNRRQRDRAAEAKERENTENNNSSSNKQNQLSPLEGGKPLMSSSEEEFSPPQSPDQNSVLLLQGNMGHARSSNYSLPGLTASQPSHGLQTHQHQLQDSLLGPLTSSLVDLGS
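Six1/Eya2 binding was read as AlphaScreen signal after compounds were pinned into GST-Six1 plus His-tagged Eya2 (5X stock 250/500 nM) in pH 8.0 Tris/NaCl/TCEP buffer, beads added, then incubated 1 h, 37 C, dark.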
PINK1 expr mod – PINK1 expression modulation. PINK1 immunofluorescence, high-content cytometry, 24 h. Potency, µM (series often up to 76.6 µM), without a hit: at the highest dose activation (PINK1 increase), hits mostly activators. 0.2% of 410,000 active. AID 624263; active = well fitted activation curve with a large enough effect; inconclusive = small, poorly fitted or top-dose-only effect; inactive = flat fitted curve, though single readings scatter; cell line not stated here;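 also: potency is read from the fitted curve at half-maximal effect; % of control where 0% means no effect; nearly all actives have a fitted effect of over 65% in size; a mitochondrial uncoupler was the plate control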
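Decision-based qHTS: stable cells, 24 h exposure to five compound concentrations, CCCP as control. Fixed cells stained for PINK1 plus nuclear, mitochondrial and cell markers, cytometer read.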
The depositor's hits bear a star; u = inconclusive; x = no result given; & = joins results of further samples; [ ] = another dose, or the depositor's remark.

SMILES	D2 ag	D2 potentiator	TRPML1 agonist	TRPML1 inh	Six1-Eya2 blk	PINK1 expr mod
O=C(NNC1=C(C(=O)C(F)(F)F)CCC1)c1cccc(Cl)c1	-3.6	16	-1.8	-3	-5	u
Cc1ccn2cc(-c3cccc(NC(=O)C(C)C)c3)nc2c1	-2.1	-3	2.1	14	4	-0.6%
Cc1ccccc1N1CCN(S(=O)(=O)c2nnc(NC(=O)c3ccc(Cl)cc3)s2)CC1	x	x	0.5	2	x	-0.8%
CCOc1cc(/C=C2\C(=O)N(CCC#N)N=C2C)ccc1OCC(N)=O	2.0	-10	-0.2	3	-2	0.6%
O=C(Cc1c(F)cccc1Cl)Nc1ccc(S(=O)(=O)N2CCCC2)cc1	8.2	7	0.7	-10	-4	6.1%
Cn1c(=O)n(-c2ccc(F)c(Cl)c2)c(=O)c2sc3ccccc3c21	x	x	0.7	u	x	1.5%
O=C(NC1CCNCC1)C1CC1	-0.8	-55	2.1	25	11	-1.1%
Cc1ccc(-c2nc(S(=O)(=O)c3ccc(C)cc3)c(N3CCCCCC3)o2)cc1	x	x	2.5	13	x	-1.0%
C[C@@]12CCC=C[C@H]1[C@H](c1ccoc1)N(Cc1ccccc1)C2=O	-2.7	-5	2.1	-21	-8	-0.1%
CC(C)C(=O)Nc1cccc2nsnc12	2.0	5	0.2	11	1	x
Cc1nnc(SCC(=O)Nc2c(Cl)cccc2Cl)n(N)c1=O	-1.8	-8	0.2	18	1	0.2%
Cn1c2c(c3ccccc31)CCN1CCC[C@]21c1ccccc1	-8.2	-6	2.6	-9	-13	29%
CCN(CC)S(=O)(=O)c1cc([N+](=O)[O-])ccc1NNC(=O)Nc1ccccc1	2.4	11	5.1	2	-7	-0.8%
O=c1[nH]c2ccc(S(=O)(=O)N3CCC(Cc4ccccc4)CC3)cc2o1	0.4	-3	1.6	-6	0	6.7%
O=C(Cc1ccccc1)Nc1ccc(N2CCOCC2)cc1	-0.1	-7	-0.2	-8	-8	-0.6%
Cc1cc(N2CCN(C)CC2)nc2ccc(NC(=S)N3CCCCC3)cc12	-4.6	-16	-0.4	6	-9	1.2%
Cc1ccc(C(=O)N2CCc3cc(CNC(=O)CCc4ccccc4)ccc32)cc1	x	x	4.3	16	x	0.5%
CCCCc1ccc(-c2c(C#N)c(N)nc3c2CCCC3)s1	-4.6	-21	-0.8	-12	0	0.5%
Cc1ccc(C(=O)ON=C2CCN(c3ccc([N+](=O)[O-])cc3)CC2)cc1	4.0	7	-0.4	-1	-11	-5.3%[38.3 µM]
CC1(C(=O)Nc2cnc3ccccc3c2)CCN1Cc1ccc2c(c1)OCCO2 (stereo unspecified)	2.2	-7	-1.1	x	-9	2.0%
CCn1c2ccccc2c2nnc(SCC(=O)O)nc21	x	x	-0.9	14	x	0.3%
CCC(c1nnc(SC(C)C(=O)NC2CC2)n1-c1ccc(OC)cc1)N(C)C (stereo unspecified)	0.2	-2	0.7	-11	7	0.2%
Cc1ccc2c(c1)C(=O)C(=O)N2CCCOc1ccccc1	-11	-23	0.3	7	1	6.5%
COc1ccccc1COC(=O)N/C=C/c1ccco1	-2.6	-1	1.5	8	-6	0.3%
CCn1c(C(O)c2ccc(C)cc2)nc2ccccc21 (stereo unspecified)	-5.3	-3	1.3	6	-1	0.9%
Cc1c(C(=O)N2CCCCC2)oc2ccccc12	-0.6	-1	-0.2	44	2	0.7%
O=C(Nc1cccc(S(=O)(=O)N2CCCC2)c1)c1cc(=O)[nH]c2ccccc12	10	5	-0.3	-9	17	0.3%
CCc1ccccc1N1C(=O)N(CC(=O)c2ccc(Cl)cc2)c2ccccc2S1(=O)=O	x	x	2.6	-11	x	-0.4%
CCCNC(=O)c1cc2c(c(-c3cccc(-c4ccc(F)cc4)c3)n1)[C@H](CCO)N(S(=O)C(C)(C)C)C2 (stereo partly specified)	8.2	-5	1.9	-15	-10	1.3%
Cc1ccccc1NC(=O)CN1CCN(Cc2ccccc2)CC1	4.5	-23	0.6	2	1	1.1%
CCCCSc1ncnc2[nH]ncc12	2.9	-11	0.7	23	-14	0.5%
CSCC[C@H](Nc1ncnc2sc(C)c(C)c12)C(=O)O	-3.3	-19	-0.4	-2	-13	-0.8%
CC(C)(C)c1ccc(C2Sc3ccccc3NC3=C2C(=O)c2ccccc23)cc1 (stereo unspecified)	x	x	-0.9	28	x	u
CCCOc1ccc(/C=N/Nc2ccccc2[N+](=O)[O-])c(O)c1	-2.6	2	0.6	-16	-28	-0.7%
CCN(c1ccccc1)S(=O)(=O)c1ccc(Cl)c(NC(=O)CN2CCCCCC2)c1	1.7	-5	2.4	67	6	12%
O=C(O)c1cc(S(=O)(=O)N2CCOCC2)c[nH]1	-1.2	1	-0.6	7	1	1.3%
COc1ccc(-n2c(C)c(C)c3c(N)ncnc32)cc1	-4.5	-6	0.0	35	-14	-2.8%
C=CCn1c(SC2CCOC2=O)nc2scc(C3CC3)c2c1=O (stereo unspecified)	-2.2	2	-0.8	14	-1	-1.1%
O=C(NCCCn1ccnc1)Nc1ccc(Cl)c(Cl)c1	0.3	-16	-0.4	2	u	x
Cc1ccc(NC(=O)COc2ccc(S(=O)(=O)N3CCOCC3)cc2)cc1	-1.4	11	-0.2	56	u	3.0%[38.3 µM]
Cc1ccc(C)c(S(=O)(=O)N2CCC(c3nc4c(nnn4Cc4ccc5c(c4)OCCO5)c(=O)[nH]3)CC2)c1	1.9	-3	-0.3	10	-1	2.0%
COC(=O)c1cccc(CN2C(=O)SC(Nc3ccccc3C)C2=O)c1 (stereo unspecified)	x	x	4.0	44	x	-0.1%
COCCCN(C(=O)C1=COCCO1)c1c(N)n(Cc2ccccc2)c(=O)[nH]c1=O	-5.0	-13	0.3	-8	28	0.9%
Cc1cc(C)cc(OC(C)C(=O)NCCCn2ccnc2)c1 (stereo unspecified)	-4.1	-6	0.6	5	2	1.0%
CN(C(=O)c1sc2nc(N3CCCC3)c3c(c2c1N)CC(C)(C)OC3)c1ccccc1	1.9	-8	-0.2	26	-3	1.7%
CC1CC(C)CN(CCCNC(=O)C2CCCN(c3nnc(N4CCCC4=O)s3)C2)C1 (stereo unspecified)	-2.4	-47	-0.6	-9	4	-0.2%
Cc1cccc(/C=N/NC(=O)c2ccc(NC(=O)c3ccccc3C)cc2)n1	-1.8	-3	-0.6	-11	-28	-1.3%
Cc1ccc(N(C(=O)Cc2cccs2)C2C=CS(=O)(=O)C2)cc1Cl (stereo unspecified)	2.7	2	-0.7	4	2	-0.9%
COc1cccc(NC(=O)CN(C)C(=O)c2cc(S(=O)(=O)Nc3ccccc3OC)ccc2C)c1	-1.2	-3	1.0	1	5	1.1%
O=C(CCS(=O)(=O)c1ccccc1)Nc1ccccc1-c1nc2ccccc2s1	1.2	4	0.3	-6	4	-0.8%
Cc1ccccc1C(=O)NC1CC2CCCC(C1)N2Cc1ccccc1 (stereo unspecified)	-5.8	0	0.1	-8	-1	0.1%
CCn1c(O)c(N=NC2=NC(=O)CS2)c2ccccc21	-6.6	-24	2.4	-15	3	-0.1%
Cc1cc(-c2ccc(C)c(S(=O)(=O)Nc3ccc(C)c(N(C)C)c3)c2)on1	x	x	1.6	34	x	2.2%
O=C(COc1ccccc1)N(Cc1cccnc1)c1nc2ccc(F)cc2s1	x	x	1.9	55	x	9.8%
CCOc1cc(CNC(C)(C)C)ccc1OCC(=O)Nc1cccc(C(F)(F)F)c1	-2.9	-7	-0.1	8	3	7.9%
COC(=O)c1cc(OC)c(OC)cc1NC(=O)CC1CCCCC1	0.2	-2	7.6	29	5	18%[38.3 µM]
Cc1cc(NCc2ccccc2Cl)n2cnnc2n1	x	x	-0.2	0	x	0.6%
Cc1ccc(S(=O)(=O)Nc2ccc(S(=O)(=O)N3CCCC3)cc2)cc1	-0.1	23	-0.4	-2	10	-1.4%
COc1ccc(C2NCCO2)cc1OC (stereo unspecified)	1.7	-1	2.0	12	6	-1.5%
CC(C)CCN1CCC(CN2C(=S)NC[C@@H]2Cc2ccccc2)CC1	-2.4	x	0.0	-12	-1	0.6%

Reprinted from the part before: 2 compounds; new compounds follow.
SMILES	D2 ag	D2 potentiator	TRPML1 agonist	TRPML1 inh	Six1-Eya2 blk	PINK1 expr mod
COc1ccc(C2NCCO2)cc1OC (stereo unspecified)	1.7	-1	2.0	12	6	-1.5%
CC(C)CCN1CCC(CN2C(=S)NC[C@@H]2Cc2ccccc2)CC1	-2.4	x	0.0	-12	-1	0.6%
CCCCCOC(=O)NC1CCS(=O)(=O)C1 (stereo unspecified)	-1.2	-10	0.9	23	-5	-0.9%
CNc1cncc(-c2cccc(OC)c2F)n1	3.9	-3	-0.9	x	-9	-0.7%
NC(=O)CC(NC(=O)Cc1ccc(Br)cc1)c1ccc(N2CCC(Br)CC2)c([N+](=O)[O-])c1 (stereo unspecified)	-2.0	-10	-0.4	17	1	2.0%
CC(C)(C)c1ccc(C(=O)N2CCC2(C)C(=O)NCc2cccc3ccccc23)cc1 (stereo unspecified)	-3.0	-13	-0.4	x	-4	0.9%
CCOc1ccc2oc(=O)cc(CN3CCN(c4ccc(Cl)cc4)CC3)c2c1	x	x	0.3	-8	x	0.8%
Clc1cccc(Cl)c1C1=NOC(c2nnc(-c3ccccc3)o2)C1 (stereo unspecified)	1.0	-4	-0.7	-2	5	1.6%
O=C(Nc1nnc(S(=O)(=O)N2CCCCCC2)s1)c1ccccc1	0.1	-5	-0.5&-0.5	4&14	5	11%&-0.4%
CCn1c2ccccc2c2cc(NC(=O)c3cccc([N+](=O)[O-])c3)ccc21	0.7	-2	0.9	3	-21	3.2%
COCCOC(=O)C1=C(C)NC(SCC(=O)NC(C)(C)C)=C(C#N)C1c1ccco1 (stereo unspecified)	-2.9	-8	2.7	-2	22	6.3%
Cc1nc2nc(NC(=O)C(C)(C)C)[nH]n2c(=O)c1Cc1ccccc1	x	x	0.5	-1	x	-1.2%
COc1cc(Cl)c(C)cc1NC(=O)CSc1nnc(-c2ccccn2)n1Cc1ccco1	-4.9	-25	2.1	11	-7	6.2%[38.3 µM]
COc1ccc(Cl)cc1-n1c(C)cc(C(=O)OCC(=O)N2CC(=O)Nc3ccccc32)c1C	1.6	-2	0.7	39	-20	-2.0%
CCOC(=O)c1c(N)c(C#N)c2n1CCCCC2	-1.6	15	-0.4	-12	-3	-1.5%

Reformatted bar-delimited: 4 of the compounds above
Structure | D2 ag | D2 potentiator | TRPML1 agonist | TRPML1 inh | Six1-Eya2 blk | PINK1 expr mod
COCCOC(=O)C1=C(C)NC(SCC(=O)NC(C)(C)C)=C(C#N)C1c1ccco1 (stereo unspecified) | -2.9 | -8 | 2.7 | -2 | 22 | 6.3%
Cc1nc2nc(NC(=O)C(C)(C)C)[nH]n2c(=O)c1Cc1ccccc1 | x | x | 0.5 | -1 | x | -1.2%
COc1cc(Cl)c(C)cc1NC(=O)CSc1nnc(-c2ccccn2)n1Cc1ccco1 | -4.9 | -25 | 2.1 | 11 | -7 | 6.2%[38.3 µM]
COc1ccc(Cl)cc1-n1c(C)cc(C(=O)OCC(=O)N2CC(=O)Nc3ccccc32)c1C | 1.6 | -2 | 0.7 | 39 | -20 | -2.0%

Screens as filed in PubChem BioAssay.
